HCMV NEC inh: disrupts HCMV UL50-UL53 complex binding; HTRF UL50-UL53 interaction, normalized percent inhibition; inhibition, % (no concentration beside the values); 190,000 tested, 0.15% active; AID 1918969;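 active = both replicates at 50% or more, plus weaker picks with an unusually low signal ratio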;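 also: stock transfer was 100 nL into about 20 µL; 0% = negative control wells and 100% = wells with untagged competitor protein; inactives centre near -12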
Sa growth inh: S. aureus growth inhibition; 170,000 tested, 0.53% active; AID 720641; relative growth, % (test concentration not listed); S. aureus RN4220 growth, OD600, 20 h, 42 °C; active compounds read low;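 active = growth at 42 °C up to 50% and 20 or more points under that at 30 °C, or under 10% at both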;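 also: 300 nL library stock went into each well; scaled to the means of positive and negative controls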
GIV-Gai inh: inhibitors of GIV GBA-motif binding to rat Galpha-i3; percent of control (FP), % (no concentration beside the values); 210,000 tested, 0.42% active; P08753; Galpha-i3/FITC-GIV peptide fluorescence polarization, 90 min; active compounds read low; scaled: aluminum fluoride 0%, vehicle 100%;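 active = replicate mean at 85% of control or lower, very high polarization wells dropped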;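 also: wells of about 15 µL received 100 nL stock; the first replicate is given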
Target sequence (P08753 whole entry, looked up): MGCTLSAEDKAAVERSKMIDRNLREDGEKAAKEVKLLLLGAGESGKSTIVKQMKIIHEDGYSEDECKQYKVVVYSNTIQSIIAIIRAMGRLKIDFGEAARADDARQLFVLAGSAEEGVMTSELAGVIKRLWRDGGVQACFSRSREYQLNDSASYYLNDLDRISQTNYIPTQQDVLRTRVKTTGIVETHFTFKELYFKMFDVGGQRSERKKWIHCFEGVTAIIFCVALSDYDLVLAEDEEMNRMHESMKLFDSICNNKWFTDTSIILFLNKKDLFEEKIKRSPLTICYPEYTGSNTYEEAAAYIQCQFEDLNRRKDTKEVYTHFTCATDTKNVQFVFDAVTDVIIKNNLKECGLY
Sa growth inh second temp: recorded beside Sa growth inh, whose call it bears; relative growth, %; measured here: growth at 30 °C;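 optical density after 20 h as mean of two plates; 100% = untreated growth and lower means inhibition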
Active calls of the source: *; / = not tested or not shown; & = joins results of further samples.

SMILES	HCMV NEC inh	Sa growth inh	Sa growth inh second temp	GIV-Gai inh
c1ccc(-c2csc3ncnc(NCCCn4ccnc4)c23)cc1	-10	81	86	105
C=CCN1CN=C(NS(=O)(=O)c2ccc(NC(C)=O)cc2)NC1	16	100	101	105
Cc1nn(Cc2nnc(SCc3c(Cl)cccc3Cl)o2)c(C)c1Br	-30	81	81	98
COc1ccc(-n2c(CN3CCNCC3)nc3cccnc32)cc1	2	/	/	107
O=C(COc1ccccc1)N(Cc1cccnc1)c1nc2c(F)cc(F)cc2s1	/	116	84	102
CCOc1ccc(OCCSc2nc3ccccc3n2Cc2ccccc2)cc1	/	104	90	103
COc1ccc(-c2nc3scc(CCNS(=O)(=O)c4ccc(F)cc4C)n3n2)cc1	/	116	86	92
C1CCOC2(CCC3(CC2)OCCCCO3)OC1	-8	101	104	99
Cc1ccc(Cl)cc1NC(=O)CC(O)(C(F)(F)F)C(F)(F)F	-4	-0.8*	-0.4*	102
CC(C)(C)c1nnc(Nc2ccc(Nc3ccccc3)cc2)[nH]c1=O	1	111	85	97
CC(=O)Nc1cccc(-c2nnc(SCC(=O)c3cc([N+](=O)[O-])ccc3Cl)o2)c1	-50	88	84	103
O=C(c1ccccc1Cl)N1CCN(c2ncnc3c2c(-c2ccccc2)cn3-c2ccccc2)CC1	-5	/	/	100
O=C(Nc1ccnn1Cc1ccccn1)c1cccnc1Oc1ccccc1	-27	71	84	/
O=C(c1c2c(nc3ccccc13)C(=O)N(C1CCCCC1)C2)N1CCN(c2ccc(F)cc2)CC1	/	84	92	98
C=CCN1CC(c2nc3ccccc3n2CC(O)COc2cc(C)cc(C)c2)CC1=O (stereo not given)	8	/	/	101
COc1ccc(/C=C2/SC(=S)NC2=O)cc1COc1ccc(F)cc1F	-25	72	76	/
CC(C)C(NC(=O)C12CC3CC(CC(C3)C1)C2)C(=O)Nc1nc2ccccc2s1 (stereo not given)	/	91	94	102
CC(C)OCCCNc1ccc2nnc(CCNC(=O)c3ccccc3F)n2n1	-5	/	/	104
COc1ccc(S(=O)(=O)N2CCC(C(=O)N3CCCCCC3)CC2)cc1C	-5	104	105	103
COc1ccc(NC(=O)CC2C(=O)N(c3ccc(C)cc3)C(=O)N2Cc2ccc(C)cc2)cc1 (stereo not given)	-9	104	91	98
COc1ccc(CN(C)C(=O)C2CC(=O)N(c3ccc4c(c3)OCCO4)C2)c(OC)c1 (stereo not given)	-9	93	98	/
Cc1ccc(C(=O)Nc2c(C)nc3ccccn3c2=O)cc1	/	85	92	101&102
Nc1cccc2c1C(=O)N(CC(=O)NC13CC4CC(CC(C4)C1)C3)C2=O	-17	98	96	/
Cc1noc(-c2ccc(-c3noc(-c4cccc(Cl)c4)n3)cc2)n1	/	116	87	100&105
CCCc1nn2c(=O)cc(COc3ccc(/C=C(\C#N)C(=O)Nc4ccccc4)cc3)nc2s1	-16	102	87	97
CCc1ccc(-c2nc(CSCC(=O)N3CCc4ccccc4C3)c(C)o2)cc1	/	81	82	100
COc1cc(/C=C2/SC(=NCc3ccccc3)N(Cc3ccccc3)C2=O)cc(OC)c1OC	3	93	93	/
CCCn1c(SCC(=O)OC(C)(C)C)n[nH]c1=O	16	112	97	/
O=C1c2ccccc2C(=O)N1CN1CCC(O)(c2ccc(Cl)cc2)CC1	-59	100	89	102
O=C(Nc1ccc(Cl)cc1)NC(c1ccc(F)cc1)c1nnc(-c2ccccc2)o1 (stereo not given)	-4	/	/	99
CCN(CC)c1cc(C)c2cc(NC(=O)/C=C/c3ccccc3OC(C)C)ccc2n1	-7	112	86	99
COc1ccc(Cl)cc1NC(=O)Cn1ncc2ccccc21	1	110	79	102
COC(=O)c1sccc1NC(=O)NCc1cccn1Cc1cccc(F)c1	-21	/	/	104
COc1cccc(Cn2c(=O)n(-c3ccccc3C)c(=O)c3c2c2cc(C)ccc2n3C)c1	/	118	94	110
COc1ccc(-n2nc3ccc(NC(=O)c4cc5ccccc5o4)cc3n2)cc1Cl	33	98	102	109
COc1ccccc1C1=NOC(C(=O)NC2CCCC2)C1 (stereo not given)	/	88	90	108
COc1cc2c(cc1OC)C(C)N(C(=O)c1nn(C)c3c1CSc1ccccc1-3)CC2 (stereo not given)	/	91	60	100
Cc1cccc(NS(=O)(=O)c2c(C)nc3sccn3c2=O)c1C	/	93	68	110
CCCCCOc1ccc(/C=C/C(=O)Nc2sc(C(C)=O)c(C)c2C(=O)OCC)cc1OC	-40	104	87	101
Cn1c(=O)c2c(nc(NCCc3ccccc3)n2Cc2ccc(Cl)c(Cl)c2)n(C)c1=O	-51	113	89	108
COc1ccc(OC)c(CCNc2nc3ccccc3c3nc(-c4cccnc4)nn23)c1	14	87	111	97
O=S(=O)(c1ccc(Br)cc1)c1nc(-c2cccs2)oc1SCc1ccccc1F	-12	96	92	100
COc1cccc2c1Oc1ncccc1N(C(=O)Nc1cccc(Cl)c1)C2	/	95	82	100
Cc1nn(C(C)C(=O)NC2CCCC2)c(=O)c2c(-n3cccc3)n(-c3ccccc3)nc12 (stereo not given)	-1	/	/	102
Cc1nc(S(=O)(=O)Nc2cccc(F)c2)cn1C	-4	/	/	105

Part of the list above in order of length of the SMILES, largest number first:
SMILES	HCMV NEC inh	Sa growth inh	Sa growth inh second temp	GIV-Gai inh
Cc1nn(C(C)C(=O)NC2CCCC2)c(=O)c2c(-n3cccc3)n(-c3ccccc3)nc12 (stereo not given)	-1	/	/	102
COc1cccc(Cn2c(=O)n(-c3ccccc3C)c(=O)c3c2c2cc(C)ccc2n3C)c1	/	118	94	110
Cn1c(=O)c2c(nc(NCCc3ccccc3)n2Cc2ccc(Cl)c(Cl)c2)n(C)c1=O	-51	113	89	108
COc1cc2c(cc1OC)C(C)N(C(=O)c1nn(C)c3c1CSc1ccccc1-3)CC2 (stereo not given)	/	91	60	100
CCN(CC)c1cc(C)c2cc(NC(=O)/C=C/c3ccccc3OC(C)C)ccc2n1	-7	112	86	99
O=S(=O)(c1ccc(Br)cc1)c1nc(-c2cccs2)oc1SCc1ccccc1F	-12	96	92	100
COc1cccc2c1Oc1ncccc1N(C(=O)Nc1cccc(Cl)c1)C2	/	95	82	100
COC(=O)c1sccc1NC(=O)NCc1cccn1Cc1cccc(F)c1	-21	/	/	104
Cc1cccc(NS(=O)(=O)c2c(C)nc3sccn3c2=O)c1C	/	93	68	110
COc1ccc(Cl)cc1NC(=O)Cn1ncc2ccccc21	1	110	79	102
COc1ccccc1C1=NOC(C(=O)NC2CCCC2)C1 (stereo not given)	/	88	90	108
Cc1nc(S(=O)(=O)Nc2cccc(F)c2)cn1C	-4	/	/	105

Rewritten field by field: part of the list above.
O=C(c1ccccc1Cl)N1CCN(c2ncnc3c2c(-c2ccccc2)cn3-c2ccccc2)CC1
  HCMV NEC inh: -5 | Sa growth inh: / | Sa growth inh second temp: / | GIV-Gai inh: 100
O=C(c1c2c(nc3ccccc13)C(=O)N(C1CCCCC1)C2)N1CCN(c2ccc(F)cc2)CC1
  HCMV NEC inh: / | Sa growth inh: 84 | Sa growth inh second temp: 92 | GIV-Gai inh: 98

The list continues.
SMILES	HCMV NEC inh	Sa growth inh	Sa growth inh second temp	GIV-Gai inh
C/C=C/C(=O)Nc1ccccc1OC	-6	98	77	107
Cn1c2ccc(F)cc2c2nc3n(c(=O)c21)CCS3	-7	96	93	106
COC(=O)CN1C(C(=O)c2ccccc2)=C(OC(=O)c2ccc(F)cc2)c2ccccc2S1(=O)=O	2	99	87	96
O=C(CSc1ncc(-c2ccccc2)[nH]1)Nc1ccccc1	3	103	93	104
CCOc1ccccc1NC(=O)CN1C(=O)CC(c2ccc(C)c(C)c2)=Nc2ccccc21	/	88	97	100
Cc1c(C(=O)c2ccccc2)c(=O)n(C)c(=O)n1C	-5	107	95	103
COc1cc(C2C(C(=O)OCCc3ccccc3)=C(C)NC3=C2C(=O)CC(C)(C)C3)cc(OC)c1OC (stereo not given)	3	/	/	105
COc1ccc2c(C#N)c3ccccn3c2c1	-25	/	/	100
CCOc1nc(NC(=O)NC(=O)c2c(F)cccc2F)nc(-c2ccccc2)n1	-4	86	58	/
Cc1cc(S(=O)(=O)NCc2ccc(S(N)(=O)=O)cc2)c(C)s1	-7	106	83	103
O=C(NCC1CCCO1)c1cc2c(s1)CCC2 (stereo not given)	13	98	96	/
Cc1cc(C)c(S(=O)(=O)Nc2cnc(N(CC(C)C)CC(C)C)c(C(=O)O)c2)cc1C	-10	/	/	130
Cc1cc(C(=O)N2CCCC2c2ccc(F)cc2)on1 (stereo not given)	31	/	/	108
COC(=O)c1ccccc1NC(=O)Cn1cc2c(n1)CCCC2	-3	98	74	103
CC1(C)Cc2ccccc2C(N/N=C/c2ccco2)=N1	-8	141	99	111
CCOC(=O)c1c(C=O)oc2c(C)cc(OC(=O)c3ccccc3Cl)c(Br)c12	17	/	/	106
COC(=O)c1ccc2c(=O)n(NC(C)=O)c(=S)[nH]c2c1	-25	100	106	103
CCOC(=O)C1CCN(C(c2ccc(F)cc2)c2sc3nc(-c4ccco4)nn3c2O)CC1 (stereo not given)	/	145	88	92
COc1ccc(CNc2oc(-c3ccc(COc4ccc(Cl)cc4)o3)nc2C#N)cc1	5	99	87	102
NC(CC(=O)O)c1ccc2c(c1)OCO2 (stereo not given)	-23	95	85	102
CCc1c(C)nc2ncnn2c1Sc1ccccc1NC(=O)Nc1cc(C)cc(C)c1	-10	/	/	97
CCN(CC)C(=S)C(=O)Nc1cc(C(F)(F)F)cc(C(F)(F)F)c1	14	106	76	/
COc1cc(C=C2C(=O)NC(=O)NC2=O)ccc1Oc1ccc([N+](=O)[O-])cc1[N+](=O)[O-]	49*	/	/	102
Cc1cc(C)n2nc(N(Cc3ccccc3C)S(=O)(=O)c3ccc(Cl)cc3)nc2n1	-8	/	/	99
CSc1n[nH]c(-c2ccc(Cl)cc2)c1SC(=O)N(C)C	7	105	81	104
CCOc1ccc(S(=O)(=O)Nc2ccccc2C(=O)Nc2nn[nH]n2)cc1	-32	98	94	/
COC(=O)c1sc(-c2ccc(Cl)cc2)cc1NC(=O)C(F)(F)F	16	90	94	100
CCSc1nc2c(c(=O)[nH]c(=O)n2C)n1Cc1ccc(C)cc1	0	102	83	/
COc1ccc(-c2cc(=O)c3ccc(OC)cc3o2)cc1	-10&-20	91	83	110&111
Cc1ccc(-c2nnc3ccccc3c2C(=O)NCC(C)C)cc1	-103	/	/	101
COc1ccc2cc(C#N)c(=S)[nH]c2c1	-98	116	67	108
Cc1ccc2nc(COc3ccccc3NC(=O)COc3ccccc3Cl)cc(=O)n2c1	/	96	88	99
Cc1cccn2c(=O)c(C(=O)NC(C)c3ccccc3)c(O)nc12 (stereo not given)	-32	105	86	101
O=C1CNC(=O)/C1=C\c1ccc(O)cc1	/	106	81	113
N#CCCn1c(SCc2csc(-c3ccccc3)n2)nc2ccccc21	-23	123	93	/
CCOC(=O)c1ccccc1NC(=O)c1sc2nc3n(c(=O)c2c1C)CCCC3	2	102	80	99
O=C(O)CSc1ccccc1Br	-36	92	90	/
CCCCSc1cc2c(cc1NC(=O)C(C)C)n(C)c(=O)n2C	-8	/	/	107
CCCc1nn2c(=O)cc(CSc3nc(-c4ccc(C)cc4)nc4cc(=O)[nH]n34)nc2s1	-33	/	/	99
CCN(CC)c1ccc(C(=O)c2ccc(N(CC)CC)cc2)cc1	-18	87	82	104
C/C(=N\OC(=O)c1ccccc1)c1cc(-c2ccccc2)no1	-18	101	96	98
O=C(Nc1ccccc1C(F)(F)F)c1ccc2oc(=O)c(S(=O)(=O)c3ccc(F)cc3)cc2c1	-28	107	87	100
CSC(=CC(=O)c1nccs1)SC	-5	100	93	100
CC(=O)N1CCC(O)(c2ccc3c(c2)OCO3)CC1	-10	83	92	99
Cc1ccc(CNC(=O)CCCn2c(=O)c3sccc3n(Cc3ccc(F)cc3Cl)c2=O)cc1	/	87	100	101
COc1ccc(-c2nc(SCC(=O)NC3CCCC3)c(-c3ccc(F)cc3)[nH]2)cc1OC	-14	100	67	100
CC1CCCN(C(=O)COC(=O)c2cc(S(=O)(=O)N3CCCC3)ccc2O)C1 (stereo not given)	-24	93	88	/
Cc1cc(C)nc(NC(=S)c2ccc(NC(=O)/C=C/C(=O)O)cc2)n1	-41	88	83	100
CCn1c2ccccc2c2cc(C3C(C#N)=C(N)Oc4n[nH]c(C(C)C)c43)ccc21 (stereo not given)	-22	83	66	100
O=C(c1ccccc1)C(Sc1nc2ccccc2[nH]1)c1ccccc1 (stereo not given)	/	96	91	104
O=C(c1ccc2c(c1)N(Cc1ccccc1)C(=O)c1ccccc1S2(=O)=O)N1CCCCCC1	-30	103	86	108
COc1cc(OC)c(C2C(C#N)=C(N)Oc3n[nH]c(-c4cccc([N+](=O)[O-])c4)c32)c(OC)c1 (stereo not given)	-36	/	/	100
CCC(=O)N1CCc2cc(Br)cc(S(=O)(=O)CCC(=O)NCc3cccc(OC)c3)c21	-9	97	85	102
N#C/C(=C1/CCCN1)c1nc2ccccc2s1	3	102	87	/
Cc1ccc(Cn2c(=O)n(Cc3nc(-c4ccccc4)no3)c(=O)c3cc4c(cc32)OCO4)cc1	/	86	96	100
CC1CC(N(C(=O)c2ccc([N+](=O)[O-])cc2)c2ccccc2)c2ccccc2N1C(=O)c1ccc(F)cc1 (stereo not given)	-6	/	/	101
CSc1cccc(NC(=O)CN(C)S(=O)(=O)c2ccccc2)c1	-9	132	98	102
COc1cccc(CN2COc3ccc4c(oc(=O)c5ccccc54)c3C2)c1	/	81	75	101
CCOC(=O)CCc1nc(N2CCCCC2)c2c(-c3ccccc3)noc2n1	8	/	/	101
Cc1ccc(-n2c(C)ccc2C)cc1	-11	97	101	/
O=C(Nc1ccc(F)cc1)Nc1cccc(-c2noc(-c3ccoc3)n2)c1	-34	/	/	108

Bioassay records: PubChem, ICCB-Longwood Screening Facility, Harvard Medical School
